MT1-MMP promoter: inhibitors of MT1-MMP promoter transcription, cell-based, luciferase reporter, luminescence (AID 618); MT1-MMP promoter luciferase reporter cells, luminescence; calls from a first round at 10 µM; hits with a dose series show EC50 in µM; 87,000 compounds, 0.62% hits;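 active means over half of the reporter light lost at 10 µM or EC50 under 50 µM; inactive means the rest and hits that failed the dose series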;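 further: actives suppress MT1-MMP promoter-driven transcription so potencies describe inhibitors; HT1080 fibrosarcoma cells; overnight exposure; toxic or luciferase-blocking compounds were not removed from the actives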
Hsc70 ATP site: Hsc70 inhibitors, probe displacement, primary screen, biochemical, fluorescence polarization (AID 568); 83,000 tested, under 10 active; one-dose displacement, % at 20 µM; IC50 in µM for titrated hits; Hsc70 fluorescence polarization, probe displacement; higher % means a stronger effect; strong numbers were not always called active;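 active means displacement above 50% without optical interference and an IC50 on retest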;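 further: ATPase domain with a fluorescein-tagged ATP probe; 0% = vehicle and 100% = excess ADP; read after one hour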
WNV NS2B-NS3 inh: WNV NS2B-NS3 proteinase inhibition. 65,000 compounds, 0.18% hits. WNV NS2B-NS3 protease, fluorogenic substrate Ex360/Em465; active compounds read low. z-score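 (tested at a level between 10 and 100 µM)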. AID 577. P06935;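 active means z-score at -3 or under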;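 further: score is relative to mean and spread of the compound wells of a plate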
Target sequence (P06935 1371-1501 limits assumed): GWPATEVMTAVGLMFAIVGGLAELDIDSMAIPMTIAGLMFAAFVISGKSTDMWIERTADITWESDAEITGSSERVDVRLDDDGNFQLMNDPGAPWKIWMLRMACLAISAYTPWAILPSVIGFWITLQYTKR
Target sequence (P06935 1502-1679 limits assumed): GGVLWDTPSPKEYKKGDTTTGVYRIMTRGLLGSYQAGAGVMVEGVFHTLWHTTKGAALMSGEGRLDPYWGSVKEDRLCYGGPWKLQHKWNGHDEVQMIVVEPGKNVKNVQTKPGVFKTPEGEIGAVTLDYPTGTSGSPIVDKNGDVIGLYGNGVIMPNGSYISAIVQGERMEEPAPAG
The depositor's hits bear a star; i = inactive; · = no result given; + = active, no number.

SMILES | MT1-MMP promoter | Hsc70 ATP site | WNV NS2B-NS3 inh
Clc1ccc(-n2nnnc2SCc2c(-c3ccccc3)nc3sccn23)cc1 | i | -3.9% | -0.46
CCOC(=O)CSc1nc(C)cc(C)n1 | i | 4.2% | ·
Cn1c(CC2C(=O)Nc3ccc(Br)cc32)nc2ccccc2c1=O (stereo unspecified) | i | 3.1% | -0.43
C/C(N)=N\S(=O)(=O)c1ccc(Cl)cc1 | i | 4.7% | 0.77
CC(CCc1ccco1)NC(=O)Cn1ncc2c1-c1ccccc1OC2 (stereo unspecified) | i | 1.0% | 0.31
COc1ccccc1OCc1ccc(C(=O)NCc2ccco2)o1 | i | -3.3% | 1.4
Cc1ccccc1NC(=O)c1ccccc1NC(=O)c1ccco1 | i | 2.3% | -2.5
CCCc1cc(=O)[nH]c(SCCOc2ccc(OCC)cc2)n1 | i | -1.3% | ·
O=P(Cc1ccncc1)(c1ccccc1)c1ccccc1 | i | 4.9% | ·
CCOC(=O)Nc1sc(=S)n(C)c1C | i | -8.7% | -0.03
CC(NC(=O)c1cncc(Br)c1)c1ccc(S(N)(=O)=O)cc1 (stereo unspecified) | i | 1.8% | -0.7
CCOC(=O)c1c(NC(=O)c2cc(C3CC3)on2)sc2c1CCCC2 | i | 2.1% | 0.04
COc1cc(-c2nnc(SCc3cccnc3)n2C)cc(OC)c1O | i | 0.1% | -0.25
Cc1cccc(NC(=O)c2sc3nc(-c4ccc(F)cc4)cn3c2C)n1 | i | -14% | 1.6
COC(=O)c1sc(NC(=O)CSc2nnc(C(C)C)n2C)nc1C | i | -2.6% | 0.45
CCOC(=O)N1CCN(S(=O)(=O)c2ccc3c(c2)CCN3C(=O)C2CC2)CC1 | i | 0.5% | 0.3
CCn1c(Cc2c(C)[nH]c3ccccc23)nnc1SCC(=O)NCc1ccco1 | i | 5.3% | ·
CCCCCn1c(=S)[nH]c2ncccc2c1=O | i | 1.9% | -1.6
CCC(=O)N(Cc1ccco1)c1nc(-c2ccc(OC)cc2)cs1 | i | 1.7% | ·
COc1ccc(-c2cc(C(F)(F)F)n3nc(C(=O)O)cc3n2)cc1OC | i | 0.5% | -0.56
COc1cc(C(=O)NCCCNc2nc3cc(C)cc(C)c3cc2C#N)cc(OC)c1OC | i | -1.1% | ·
O=C(CSc1nc(-c2ccco2)cc(C(F)(F)F)n1)N1CCN(Cc2ccccc2)CC1 | i | -0.5% | -0.3
COC(=O)C1=C(C)n2nnnc2NC1c1ccc(Cl)cc1 (stereo unspecified) | i | -5.3% | 1.4
Cn1c(Cn2c(=O)sc3ccccc32)nnc1SCC(=O)NC1CCCC1 | i | -2.9% | -0.63
CCOc1cc(C(=O)N2CCN=C2SC)cc(OCC)c1OCC | i | 8.2% | 1

A run of entries of the results above:
SMILES | MT1-MMP promoter | Hsc70 ATP site | WNV NS2B-NS3 inh
COc1cc(C(=O)NCCCNc2nc3cc(C)cc(C)c3cc2C#N)cc(OC)c1OC | i | -1.1% | ·
O=C(CSc1nc(-c2ccco2)cc(C(F)(F)F)n1)N1CCN(Cc2ccccc2)CC1 | i | -0.5% | -0.3
COC(=O)C1=C(C)n2nnnc2NC1c1ccc(Cl)cc1 (stereo unspecified) | i | -5.3% | 1.4
Cn1c(Cn2c(=O)sc3ccccc32)nnc1SCC(=O)NC1CCCC1 | i | -2.9% | -0.63
CCOc1cc(C(=O)N2CCN=C2SC)cc(OCC)c1OCC | i | 8.2% | 1

The list continues.
SMILES | MT1-MMP promoter | Hsc70 ATP site | WNV NS2B-NS3 inh
COc1ccc(-c2c/c(=N\c3nc(-c4ccccc4)c(C)s3)c3ccccc3o2)cc1O | + | -45% | ·
COc1ccc(C2=Nn3c(nnc3-c3cccnc3)SC2)cc1OC | i | -9.9% | -1.1
CC(C)CNC(=O)C1CCN(c2ccc(S(=O)(=O)N3CCOCC3)cc2Cl)CC1 | i | 1.4% | 0.27
Cc1ccc2nc(C3CCN(S(=O)(=O)c4ccc5ccccc5c4)CC3)[nH]c2c1 | i | -5.1% | ·
Cc1ccc(NCc2nnc(SCC(=O)Nc3ncc(C)s3)n2Cc2ccco2)c(C)c1 | i | -0.4% | 0.45
Cc1ccc(C)c(S(=O)(=O)n2cnc3ccccc32)c1 | i | 0.1% | 0.84
Nc1nc(N2CCN(C/C=C/c3ccccc3)CC2)nc2ccccc12 | i | 5.5% | -0.62
Cc1ccc(NC2=NC(C(=O)Nc3ccc(C)c(C)c3)CC(=O)N2)cc1 (stereo unspecified) | i | 9.1% | -1.9
CCc1ccc(C2CC(c3ccc(F)cc3)Nc3nc(N)nn32)cc1 (stereo unspecified) | i | 2.0% | 2.5
O=C(CCCc1ccccc1)NCc1cn2ccsc2n1 | i | 6.1% | 1.4
CCOC(=O)C1CCN(S(=O)(=O)c2cc(Br)cc3c2N(C(=O)C2CC2)CC3)CC1 | i | -9.0% | -0.71
Cc1ccccc1-c1nc(S(=O)(=O)c2ccc(Cl)cc2)c(NCCN2CCOCC2)o1 | i | 2.5% | ·
COc1cc(OC)c(C2CC(=O)N3CN(c4ccccc4C)CSC3=C2C#N)cc1OC (stereo unspecified) | i | -3.6% | -0.23
C=CCNc1nc(-c2sc(NC(=O)CC)nc2C)cs1 | i | -7.5% | -1.8
Cc1cccc(N=C2N=C(N)c3ccccc32)c1 | i | -0.2% | ·
Cc1nc(S(=O)(=O)N(C)c2ccccc2)c(C#N)c(C)c1Cl | i | -1.3% | 0.95
COc1cc2c(cc1OC)C(c1cccnc1)CC(=O)N2 (stereo unspecified) | i | -0.3% | 0.15
C=C(C)Cn1c(N(CCO)Cc2ccccc2)nc2c1c(=O)[nH]c(=O)n2C | i | -0.3% | -1.4
CCC(C)OC(=O)c1cc(C)nc2c(Br)cc(Br)cc12 (stereo unspecified) | i | -5.6% | ·
O=C(OCCN=C1NS(=O)(=O)c2ccccc21)c1ccccc1 | i | 9.1% | ·
O=C(CCc1nc2ccccc2s1)OCC(=O)N1CCN(C(=O)c2ccco2)CC1 | i | 5.9% | 0.06
O=C(NCCCN1CCN(Cc2ccccc2Cl)CC1)Nc1ccccc1 | i | 7.7% | 0.63
O=C(Nc1ccc([N+](=O)[O-])cc1)/C(=C/c1cccc([N+](=O)[O-])c1)NC(=O)C1CCCCC1 | i | 5.4% | ·
COc1cc(C2C(C#N)=C(N)Oc3cc(C)n(CCN4CCOCC4)c(=O)c32)cc(OC)c1OC (stereo unspecified) | i | -2.8% | -1.1
O=C(Nc1c(Cl)cc(Cl)cc1C(=O)NCC1CCCO1)c1ccco1 (stereo unspecified) | i | 8.8% | -0.01

An excerpt from above with just MT1-MMP promoter:
| structure | MT1-MMP promoter |
| --- | --- |
| CC(C)CNC(=O)C1CCN(c2ccc(S(=O)(=O)N3CCOCC3)cc2Cl)CC1 | i |
| Cc1ccc2nc(C3CCN(S(=O)(=O)c4ccc5ccccc5c4)CC3)[nH]c2c1 | i |

Later entries
SMILES | MT1-MMP promoter | Hsc70 ATP site | WNV NS2B-NS3 inh
COc1ccc(-n2nc(C(=O)NCc3ccco3)c3ccccc3c2=O)cc1 | i | 3.1% | ·
CC(=O)OC1CC(n2ccc(NC(=O)c3ccccc3)nc2=O)OC1CO (stereo unspecified) | i | 5.7% | ·
O=C(Cc1c[nH]c2ccccc12)NCc1ccc2c(c1)OCO2 | i | 0.6% | -0.28
Cc1cc(C)nc(-n2nc(C)c3c(C(F)F)cc(C)nc32)n1 | i | 4.4% | 1.4
CCOC(=O)Cc1csc(NC(=O)C2CCCN(S(=O)(=O)c3cnc[nH]3)C2)n1 (stereo unspecified) | i | -1.0% | -0.11
COc1ccccc1CC(=O)NCC1CCCO1 (stereo unspecified) | i | 2.8% | 1.3
CCOC(=O)CSc1nc(-c2ccc3c(c2)OCO3)ccc1C#N | i | -9.3% | -0.008
Nn1c(SCC(=O)N2CCc3ccccc3C2)nnc1-c1cccs1 | i | -2.7% | ·
N[C@@H](Cc1ccccc1)c1nnc(SCc2ccccc2F)o1 | i | 0.3% | -1.2
CCOC(=O)C1CCCN(c2c(Nc3ccc(C)c(C)c3)c(=O)c2=O)C1 (stereo unspecified) | i | -0.8% | 0.19
CC(=O)N1CCN(Cc2nc3cc(NC(=O)c4ccccc4C)ccc3n2C)CC1 | i | 3.4% | ·
CCn1cc(C(=O)Nc2nnc(C)s2)c(=O)c2cc(F)c(N3CCN(C(=O)c4ccco4)CC3)cc21 | i | 0.6% | ·
Cc1cc(C)c(NC(=O)c2ccccc2N(C)S(C)(=O)=O)c(C)c1 | i | 0.5% | ·
CCc1cc2c(CN3CCN(C)CC3)cc(=O)oc2cc1O | i | 3.0% | 5
COc1cc(OC)cc(C(=O)Nc2ncc3c(n2)CC(C)(C)CC3=O)c1 | i | -2.5% | 1.6
COC(=O)COc1cc(C)cc2oc(=O)c(CC(=O)OC)c(C)c12 | i | 3.0% | -0.73
CC(C)(C)n1nnnc1C(c1ccc(F)cc1)N1CCN(Cc2ccc3c(c2)OCO3)CC1 (stereo unspecified) | i | -1.4% | ·
Cn1c(NCc2ccccc2)cc(=O)n(C)c1=O | i | 2.7% | -0.2
COc1ccccc1NC(=O)COc1cccc(-n2cnnn2)c1 | i | 4.2% | 2.2
Cc1cc(C)c2c(CC(=O)Nc3ccc(Cl)cn3)coc2c1 | i | -2.1% | -0.53
COc1ccc(/C=N\NS(=O)(=O)c2ccc(Cl)cc2)cc1COc1ccccc1[N+](=O)[O-] | i | -9.5% | ·
COc1ccc(OC)c(NC(=O)NC2(C(F)(F)F)Oc3ccccc3O2)c1 | i | -11% | -1.2
O=C(c1cc2ccccc2o1)N1CCCCCC1 | i | 4.0% | 0.78
CCOc1ccccc1NC(=O)N1CCCC(c2nc3c(nnn3Cc3ccc(C)cc3)c(=O)[nH]2)C1 (stereo unspecified) | i | 2.8% | 0.28
COCCN(C(=O)Cn1nnc2ccccc21)C(C(=O)NC1CCCC1)c1cc(OC)ccc1OC (stereo unspecified) | i | 1.2% | 0.29
Other structures
SMILES | MT1-MMP promoter | Hsc70 ATP site | WNV NS2B-NS3 inh
CCOC(=O)c1c(NC(=O)c2ccco2)sc2c1CCCCC2 | i | -5.4% | -0.91
O=C(O)CCCC(=O)Nc1ccc(N2CCCC2)cc1 | i | 2.5% | 0.56
COc1ccc(OC)c(NS(=O)(=O)c2ccc3c(c2)n(C)c(=O)n3C)c1 | i | 4.6% | 0.76
O=c1[nH]n(-c2ccccn2)c(=O)c2ccccc12 | i | -1.7% | 0.76
CN(C)c1ccc(CNCCC2(O)CCOC(C)(C)C2)cc1 (stereo unspecified) | i | -1.1% | -0.15
O=C(Nc1cccnc1)c1noc2c1CCCC2 | i | -6.3% | 1.1
Cc1ccc2nc(/C(C#N)=C\c3ccc(N4CCCCC4)c([N+](=O)[O-])c3)[nH]c2c1 | i | 3.6% | ·
Cc1cc(NC(=O)c2ocnc2C)no1 | i | -2.0% | 1.2
Cc1ccccc1OCC(O)Cn1c(N2CCN(c3ccccc3)CC2)nc2c1c(=O)[nH]c(=O)n2C (stereo unspecified) | i | 2.2% | -0.51
Cc1ccc(S(=O)(=O)N2CCC(C(=O)NCCCN3CCCCCC3)CC2)cc1 | i | -6.0% | 0.4
CCOC(=O)c1c(NC(C)=O)no[n+]1[O-] | i | -1.7% | 0.39
CCC(=O)N1CCN(c2nc(C)nc3sc(C)c(C)c23)CC1 | i | -2.2% | -0.94
C=CCSc1nccc(-c2nn(-c3ccc(C)cc3)ccc2=O)n1 | i | -1.4% | ·
CCOC(=O)CCCNC(=O)COC(=O)c1cc(C)cc(C)c1 | i | -4.7% | -0.91
CCCCNC1=C(Br)C(=O)CC(C)(C)C1 | i | -2.1% | 0.12
Cc1ccsc1/C=c1\sc2ncnn2c1=O | i | -0.6% | -0.84
COc1ccccc1NC(=O)N1CCn2c(nc3ccccc32)C1 | i | -0.7% | 1.2
COCCCn1c(=N)c(C(N)=S)cc2c(=O)n3cccc(C)c3nc21 | i | -7.4% | 1.7
Cc1ccc(N2CC(C(=O)NCc3cccs3)CC2=O)cc1 (stereo unspecified) | i | 2.4% | 1
CCn1c(SCC(=O)n2nc(C)cc2C)nnc1-c1ccc2c(c1)OCO2 | i | 5.9% | 0.01
OCC(CO)(CO)N=Cc1cc(Br)ccc1O | i | -3.3% | -0.49
CCOc1ncccc1C(=O)OCC(=O)Nc1c(C)cc(C)cc1C | i | 0.7% | ·
COc1ccc(OCCn2c(C)c(/C=N/n3cnnc3)c3ccccc32)cc1 | i | 0.3% | ·
CC1CCCC(NC(=O)CN(C)S(=O)(=O)c2cccc3cccnc23)C1C (stereo unspecified) | i | 6.1% | 0.51
CC(C)OC(=O)CSc1nnc(Cc2ccccc2)n1C | i | -4.8% | 0.04
N=c1c2c3c(sc2ncn1CCN1CCOCC1)CCCCC3 | i | 3.6% | 1
Nc1c(S(=O)(=O)c2cccs2)c2nc3ccccc3nc2n1CC1CCCO1 (stereo unspecified) | i | 1.4% | -0.17
Cc1ccc(OCc2nnc(NC(=O)c3ccco3)s2)cc1 | i | 1.3% | ·
COc1ccc2c(c1)C(=O)c1ccccc1CO2 | i | 2.2% | ·
CCOc1cc(C(=O)N2CCN(c3ccccc3)CC2)cc(OCC)c1OCC | i | 7.2% | -0.68

Whole records, looked up by structure. Screens in order: MT1-MMP promoter, Hsc70 ATP site, WNV NS2B-NS3 inh
COc1cc(-c2nnc(SCc3cccnc3)n2C)cc(OC)c1O reads i, 0.1%, -0.25
CN(C)c1ccc(CNCCC2(O)CCOC(C)(C)C2)cc1 (stereo unspecified) reads i, -1.1%, -0.15
